# Six1-Eya2 blk: qHTS Assay for Inhibitors of the Six1/Eya2 Interaction; Homeobox protein SIX1 (Homo sapiens) + Protein phosphatase EYA2 (Homo sapiens), …; AlphaScreen GST-Six1/His-Eya2 binding, biochemical; stronger effect = lower value; control for the full effect not named in the record; activity change, % (concentration not given with the values); 360,000 tested, 0.56% active; in the data active = activity change below about -65%; inconclusive = about -30% to -65%; inactive = above about -30%; also: % is scaled to controls: 0 for no effect and ±100 for the full control effect
#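 GST-Six1 + His-Eya2 (5X stock: 250/500 nM); Tris pH 8.0, 300 mM NaCl, 0.05% BSA, 0.02% Tween 20; GSH donor/Ni acceptor beads; 1 h 37 °C dark; AlphaScreen readout.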
# PINK1 modulator: A Quantitative High throughput Screen to Identify Chemical Modulators of PINK1 Expression; Potency, µM (titrated, usually from 76.6 µM), for the others: top-dose activation (PINK1 increase), hits mostly activators; PINK1 immunofluorescence, high-content cytometry, 24 h; 410,000 tested, 0.2% active; active = well fitted activation curve with a large enough effect; inconclusive = small, poorly fitted or top-dose-only effect; inactive = flat fitted curve, though single readings scatter; cell line not stated here;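 also: potency is read from the fitted curve at half-maximal effect; % of control where 0% means no effect; nearly all actives have a fitted effect of over 65% in size; a mitochondrial uncoupler was the plate control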
#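 Measures PINK1 amount and localization on or inside mitochondria by immunofluorescence. Stable cells get compounds at 5 concentrations for 24 hours before fixation and staining; CCCP controls included.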
# CtBP-E1A blk: qHTS Assay for Inhibitors of the CtBP/E1A Interaction. CtBP / adenovirus E1A interaction (AlphaScreen). AlphaScreen GST-E1A/His-CtBP binding, 1536-well; stronger effect = lower value; control for the full effect not named in the record. activity change, % (no concentration beside the values). 340,000 tested, 0.49% active. AID 651724, 2012; in the data active means activity change below about -65%; inconclusive means about -30% to -65%; inactive means above about -30%; also: % is scaled to controls: 0 for no effect and ±100 for the full control effect; compound concentration not given in the record
#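 AlphaScreen with 125 nM GST-E1A and 125 nM His-CtBP (5X stocks) in Tris pH 8.0, 300 mM NaCl, BSA, Tween 20, TCEP. Compounds preincubated 2 h at 37 deg C, then glutathione donor/nickel acceptor beads added for 1 h at 37 deg C in dark.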
# Sfp PPTase inh: qHTS Assay for Inhibitors of Bacillus subtilis Sfp phosphopantetheinyl transferase (PPTase); Potency, µM, for the others: max response, negative = inhibition, usual class: inhibitors; 310,000 tested, 3.5% active; 4'-phosphopantetheinyl transferase ffp (Bacillus subtilis), Q9F4F7; Biochemical Sfp PPTase activity, qHTS; active = well fitted inhibition curve with a large enough effect; inconclusive = small, poorly fitted or top-dose-only effect, or another doubt; inactive = no such curve, though single readings can be large or run the other way;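 also: the enzyme is Sfp with the accession as filed and its product quenches rhodamine fluorescence; potency is read from the fitted curve at half-maximal effect; 0% = enzyme reaction without inhibitor and -100% = no enzyme wells; top concentration of the series not given in the record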
#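 Fluorescence-quenching assay with 15 nM Sfp, 5 uM rhodamine-CoA and 12.5 uM BHQ-2-labelled ybbR peptide in pH 7.6 Hepes/MgCl2 buffer. Enzyme was pre-incubated with compound for 15 min at room temperature. Rate was taken from the 30-min fluorescence change (525/598 nm).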
# D2 potentiator: Beta-Arrestin HTS for Positive Allosteric Modulators of the Human D2 Dopamine Receptor: Potentiators | D(2) dopamine receptor (Homo sapiens), P14416 | DiscoveRx D2 beta-arrestin cells, luminescence, 90 min; 100% = 57 uM dopamine signal | potentiation, % (concentration not given with the values) | 360,000 tested, 0.23% active | AID 624464, 2012; active = potentiation of 50% or more; inconclusive = 30% to 50%; inactive = 30% or less;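 also: compound concentration not given in the record; tested on top of an EC20 dose of dopamine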
#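 PathHunter D2 cells, attached overnight at 37 deg C, received compound in DMSO plus dopamine at EC20 (50 nM final) for 90 min at 37 deg C. Beta-arrestin recruitment was read as luminescence after 1 h with detection reagent at ambient temperature.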
# TRPV1 potentiator: HTS Assay for Compounds that Act as Potentiators of the Vanilloid Receptor 1. Transient receptor potential cation channel subfamily V member 1 (Homo sapiens), Q8NER1. 320,000 tested, 0.02% active. TRPV1-expressing cells, Fluo-8 calcium influx, capsaicin EC20 potentiation; host cell line not named in the record; control for the full effect not named in the record. potentiation, % at 8.33 µM; active means potentiation above 80%; inconclusive means 30% to 80%; inactive means below 30%; also: 0% is about no effect
# Target sequence (Q8NER1 whole entry, looked up): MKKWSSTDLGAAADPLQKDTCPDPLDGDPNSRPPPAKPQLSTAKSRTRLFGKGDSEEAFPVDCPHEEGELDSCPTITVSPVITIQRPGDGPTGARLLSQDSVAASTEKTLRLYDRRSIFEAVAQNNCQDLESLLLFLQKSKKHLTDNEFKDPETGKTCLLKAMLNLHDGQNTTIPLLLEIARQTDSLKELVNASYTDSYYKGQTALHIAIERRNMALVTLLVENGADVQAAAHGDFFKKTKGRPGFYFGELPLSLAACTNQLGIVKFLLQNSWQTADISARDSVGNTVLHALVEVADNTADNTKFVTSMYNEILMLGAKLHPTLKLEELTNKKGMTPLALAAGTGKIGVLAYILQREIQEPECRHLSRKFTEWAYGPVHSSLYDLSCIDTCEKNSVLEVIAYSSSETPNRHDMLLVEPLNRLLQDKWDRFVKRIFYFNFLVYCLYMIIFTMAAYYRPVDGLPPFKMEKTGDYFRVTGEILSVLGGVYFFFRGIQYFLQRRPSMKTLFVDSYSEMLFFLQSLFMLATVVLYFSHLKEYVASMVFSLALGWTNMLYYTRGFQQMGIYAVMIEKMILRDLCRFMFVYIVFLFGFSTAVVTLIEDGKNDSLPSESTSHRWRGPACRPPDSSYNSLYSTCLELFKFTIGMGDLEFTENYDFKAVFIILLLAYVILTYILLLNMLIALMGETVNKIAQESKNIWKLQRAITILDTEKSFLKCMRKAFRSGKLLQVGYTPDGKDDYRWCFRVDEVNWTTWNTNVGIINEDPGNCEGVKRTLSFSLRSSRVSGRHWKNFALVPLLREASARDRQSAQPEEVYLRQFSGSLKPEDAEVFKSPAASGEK
#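 TRPV1-expressing cells were cultured overnight at 35.5C and loaded with Fluo-8 calcium dye for 40 to 90 min at room temperature. After a 10 s baseline, compound was added and calcium influx was read kinetically for 3 min (ex 480/em 520 nm).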
# D2 ag: Beta-Arrestin HTS for Positive Allosteric Modulators of the Human D2 Dopamine Receptor: Agonists | activation, % (test concentration not listed) | 360,000 tested, 0.084% active | DiscoveRx PathHunter D2 beta-arrestin, luminescence, 90 min; 100% = 57 uM dopamine signal | AID 624465, 2012; in the data active = activation above about 40%; inconclusive = about 15% to 40%; inactive = below about 15%; also: compound concentration not given in the record; the text of the record calls up to 30% inactive
#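 Agonist mode: compounds alone added to overnight-plated D2 PathHunter cells for 90 min at 37 C, with 57 uM final dopamine (EC100) defining full response. Beta-arrestin recruitment detected by chemiluminescent reagent, read after 1 h at ambient temperature.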
# Active calls of the source: *; ? = inconclusive; . = not tested or not shown; & = joins results of further samples; [ ] = remark or other dose.
SMILES,Six1-Eya2 blk,PINK1 modulator,CtBP-E1A blk,Sfp PPTase inh,D2 potentiator,TRPV1 potentiator,D2 ag
COc1ccc(CN(C(=O)c2oc3ccccc3c2C)C2CCS(=O)(=O)C2)cc1 (stereo not given),-2,5.5%,-8,15%,-7,-2,5.0
Cc1ccc(C)c(OCCC(=O)NCCc2ccc(Cl)cc2)c1,10,-1.2%,-2,6%,-23,2,-7.5
CCCN1CCc2c(sc(NC(=O)Cc3ccc(F)cc3)c2C(N)=O)C1,0,0.3%,-4,13%,-38,11,-9.8
Cc1nc(C)c(-c2ccc(SCC(=O)Nc3cccc(Cl)c3)nn2)s1,-7,3.5%,-15,6%,0,2,2.6
CCOc1ccc(/C=N/Nc2ccccn2)cc1,-2,2.4%,.,-24%,-10,7,-2.1
Cc1ccnc(NC(=O)CCc2c(C)nc3ncnn3c2C)c1,-19,3.1%,-26,22%,2,6,0.3
COc1cc(S(=O)(=O)NC2CCCC2)ccc1Cl,-6,3.1%,-23,11%,-5,7,-2.7
CC1(C)CC(=O)C(CC(=O)N2CCC(Cc3ccccc3)CC2)C(=O)C1,-2,-1.8%,0,23%,-2,6,-2.5
COc1cc(/C=C2\SC(=S)N(Nc3ccccc3)C2=O)cc(OC)c1OC,-15,5.1%,-12,1%,-5,9,-0.4
O=C(OCCSCCOC(=O)C1CC=CCC1)C1CC=CCC1 (stereo not given),73,-0.2%,54,.,-24,.,-2.2
Fc1ccc(Cn2nnnc2CN2CCc3ccccc3C2)cc1,15,2.8%,13,1%,-8,13,2.0
CCCCCCSc1nsc(NC(=O)CCC)n1,11,3.5%,2,21%,7,6,5.5
O=C(NCCCN1CCOCC1)C(=O)N/N=C/c1c2ccccc2cc2ccccc12,-10,-3.6%,15,-1%,-5,-8,-3.6
CC1(c2nnnn2-c2ccc3c(c2)OCCO3)CCC(=O)N1CCCN1CCOCC1 (stereo not given),2,1.0%,6,.,.,.,.
C[C@H](CO)N1C[C@H](C)[C@@H](CN(C)C(=O)NC2CCCCC2)Oc2c(NC(=O)Nc3ccccc3)cccc2C1=O,28,1.8%,29,.,3,.,4.2
COC(=O)C1=C(C)NC(=O)/C1=C\c1cc(C)n(-c2ccccc2C)c1C,-2,-0.6%,-4,-14%,-3,-14,-4.8
COc1cc(NC(=O)c2ccc(C)cc2)c(OC)cc1NC(=O)CN1CCCCC1,?,0.5%,-24,-2%,-33,1,0.8
COc1ccc(N2CC(C(=O)OCC(=O)Nc3ccccc3C)CC2=O)cc1 (stereo not given),-4,-0.6%,2,7%,-1,5,-3.3
CC1=CC2=NC(=O)/C(=C\c3cccn3CCOc3cc(C)cc(C)c3)C(=N)N2O1,-21,14%,-1,?,-8,6,-1.8
NC(=O)CC(NC(=O)Cc1ccc(Br)cc1)c1ccc(NC2CCCCCCC2)c([N+](=O)[O-])c1 (stereo not given),-13,1.2%,1,.,-3,.,1.1
Cc1cc2oc(=O)cc(CN3CCN(Cc4ccccc4)CC3)c2cc1C,-1,-0.7%,-2,2%,-11,?,0.8
COc1ccc(CN(C)c2ncnc3sccc23)c(OC)c1OC,-6,2.3%,-10,-5%,-8,5,0.6
Cc1c(N=C2C(=O)Nc3ccccc32)c(=O)n(-c2ccccc2)n1C,?,1.4%,-5,-3%,-24,-6,-30
Cn1cc(Cl)c(/C(N)=N/OC(=O)c2ccccc2C(F)(F)F)n1,-5,8.7%,-2,19%,11,0,7.5
COCCNS(=O)(=O)c1ccc2c3c(cccc13)C(=O)N2C,-3,3.5%,-2,16%,-1,-12,4.2
CC(C)(O)P(C)(=O)c1ccccc1 (stereo not given),2,-0.4%,9,3%,20,-3,-4.9
COC(=O)CC1C(=O)NCCN1C(=O)c1cc(OC)c(OC)cc1OC (stereo not given),1,2.0%,.,-2%,1,-14,-3.3
CCOC(=O)c1[nH]c2ccc(OC)cc2c1NC(=S)N1CCN(c2ccccc2OC)CC1,-22,7.2%,-28,-4%,-22,4,1.5
Cc1nn(-c2ccccc2)c(=S)c2ccccc12,-5,-0.7%,7,-23%,0,0,-1.3
Cc1cccc(CC(=O)NCCN2CCOCC2)c1,5,-1.1%,-1,6%,-2,3,-2.2
COc1ccc(NC(=O)CSc2nnc(C3CCCCC3)o2)c(OC)c1,20,7.8%,0,12%,3,2,-0.5
N/C(Cc1cccs1)=N\OC(=O)COc1ccccc1Cl,43,2.1%,40,?,-16,17,-1.2
CC(OC(=O)c1cccn1C)C(=O)Nc1ccc2c(c1)OCO2 (stereo not given),-24,-1.6%,17,10%,-3,-1,-4.1
Cc1ccc(-c2nc(CS(=O)CC(=O)NCCN(CC(C)C)CC(C)C)c(C)o2)cc1 (stereo not given),4,.,3,12%,-4,8,-1.2
Cc1cc(C)n(-c2nc(N(c3ccccc3)c3ccccc3)nc(-n3nc(C)cc3C)n2)n1,-7,2.9%[38.3 µM],1,50µM*,-6,-10,-4.7
O=C(O)CCNS(=O)(=O)c1ccccc1Br,2,-0.8%,9,2%,-9,7,-0.6
Cc1cc(F)ccc1S(=O)(=O)Nc1ccccc1C(=O)N1CCCC1,5,-0.8%,0,.,-3,11,5.9
Cn1c(Cn2c(=O)sc3ccccc32)nnc1SCc1ccc(F)cc1,-1,-1.4%,6,22%,-2,-10,-1.7
CCOc1ccccc1N(CC(=O)N1CCc2ccccc2C1)S(C)(=O)=O,0,-0.2%,-1,11%,-2,-8,2.4
CC(OCC(O)CN1CCCCC1CCO)c1ccc(Cl)cc1 (stereo not given),-3,0.9%,-8,9%,-11,2,-4.0
OCC[C@H]1C[C@@H](O)[C@H](O)[C@]2(CCCc3ccccc3O2)O1,-6,-0.8%,0,.,-3,-39,-4.2
CCOC(=O)c1[nH]c(C)c(C(=O)NC)c1C,-5,1.7%,3,8%,-3,20,-0.6
CC1=CC(C)(C)NC(=S)N1c1ccc2ccccc2c1,1&2,10%,4&1,0%,-7&17,3,-5.6&2.3
O=C(Cc1ccc(NC2=NC3CS(=O)(=O)CC3S2)cc1)NCCc1ccccc1 (stereo not given),-2,0.3%,5,0%,-4,-5,-5.9
CCCOc1ccc(CSC(CC(=O)O)C(=O)O)cc1 (stereo not given),3,1.3%,12,6%,-6,.,-5.1
COCCCNC(=O)CN1C(=O)/C(=C/c2ccccc2)Sc2ccccc21,6,2.6%,.,-11%,-17,-2,-4.5
COc1ccc(NC(=O)CSc2nc3ccccc3nc2N2CCCCC2)cc1,2,0.4%&0.9%,7,-1%,-4,6,-4.0
CC(C)c1ccc(NC(=O)Cn2ncn3c(cc4ccccc43)c2=O)cc1,-1,2.6%,6,17%,4,0,2.8

# Full records, quoted from the list.
# CC(OCC(O)CN1CCCCC1CCO)c1ccc(Cl)cc1 (stereo not given) is listed with Six1-Eya2 blk = -3; PINK1 modulator = 0.9%; CtBP-E1A blk = -8; Sfp PPTase inh = 9%; D2 potentiator = -11; TRPV1 potentiator = 2; D2 ag = -4.0
# CCCOc1ccc(CSC(CC(=O)O)C(=O)O)cc1 (stereo not given) is listed with Six1-Eya2 blk = 3; PINK1 modulator = 1.3%; CtBP-E1A blk = 12; Sfp PPTase inh = 6%; D2 potentiator = -6; TRPV1 potentiator = .; D2 ag = -5.1

# (further entries)
SMILES,Six1-Eya2 blk,PINK1 modulator,CtBP-E1A blk,Sfp PPTase inh,D2 potentiator,TRPV1 potentiator,D2 ag
O=S(=O)(c1ccc2ccccc2c1)N1CCN=C1SCc1cccnc1,0,-0.2%,.,-6%,-6,-18,3.7
O=C1C2C3C=CC(C3)C2C(=O)N1CCN1CCN(Cc2ccc([N+](=O)[O-])cc2)CC1 (stereo not given),-3,0.7%,.,5%,-20,6,-2.4
CC1([N+](=O)[O-])COC2(CCCCC2)OC1,-10,0.4%,-8,.,-5,.,-7.3
C/C=C(/C)C(=O)Nc1cccc(C2=NOC3(C2)C[C@@H](C(N)=O)N(C(=O)c2ccc(OC)cc2)C3)c1 (stereo not given in full),0,-0.4%,4,5%,-2,-4,1.9
COc1ccccc1N=c1oc2c(OC)cccc2cc1C(=O)NCc1ccco1,1,13%,-1,-17%,2,12,-0.4
CC(C)(C)NC(=O)C(=O)NC(=O)c1c(F)cccc1Cl,-7,-1.3%,8,19%,-1,0,-1.4
COc1ccc(-c2cc(C)no2)cc1S(=O)(=O)N1CCN(c2cccc(C)c2)C(C)C1 (stereo not given),-29,1.1%&1.7%,.,-6%,-13,-4,-1.3
CC(NC(=S)NC1CCCCC1)c1ccccc1 (stereo not given),-3,0.0%,.,17%,-25,-12,-1.9
Cc1ccc(CN2C(=O)c3ccccc3Sc3ccc(C(=O)NCCCN4CCOCC4)cc32)cc1,2,1.7%&1.9%,.,-15%,-4,-10,0.1
COC(=O)CCC(=O)N1CCCC(CO)(Cc2ccccc2C)C1 (stereo not given),5,0.8%,.,-3%,-4,-1,-2.5
CN(C)CCCNC(=O)c1cc(C(=O)c2cccc(Cl)c2Cl)c[nH]1,6,5.0%,-22,2%,-14,4,-2.6

# 6 entries from above, tab-delimited:
canonical_smiles	Six1-Eya2 blk	PINK1 modulator	CtBP-E1A blk	Sfp PPTase inh	D2 potentiator	TRPV1 potentiator	D2 ag
Cc1ccc(CN2C(=O)c3ccccc3Sc3ccc(C(=O)NCCCN4CCOCC4)cc32)cc1	2	1.7%&1.9%	.	-15%	-4	-10	0.1
O=S(=O)(c1ccc2ccccc2c1)N1CCN=C1SCc1cccnc1	0	-0.2%	.	-6%	-6	-18	3.7
O=C1C2C3C=CC(C3)C2C(=O)N1CCN1CCN(Cc2ccc([N+](=O)[O-])cc2)CC1 (stereo not given)	-3	0.7%	.	5%	-20	6	-2.4
CC1([N+](=O)[O-])COC2(CCCCC2)OC1	-10	0.4%	-8	.	-5	.	-7.3
COc1ccccc1N=c1oc2c(OC)cccc2cc1C(=O)NCc1ccco1	1	13%	-1	-17%	2	12	-0.4
CN(C)CCCNC(=O)c1cc(C(=O)c2cccc(Cl)c2Cl)c[nH]1	6	5.0%	-22	2%	-14	4	-2.6

# Assay outcomes as filed in PubChem BioAssay.

# This is a random part of the collection. About 3.7% of those tested had a hit in this group.
